Screens (PubChem BioAssay)
MT1-MMP act inh – blockers of MT1-MMP proenzyme processing, primary screen, HT1080 RFP-PRO-GFP cells, GFP/RFP fluorescence. Matrix metalloproteinase-14 (Homo sapiens), P50281. hit rate 0.061% among 360,000. GFP/RFP ratio change, % at 20 µM. GFP/RFP ratio fluorescence, overnight; percent of plate control window, DMSO zero;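 active means GFP/RFP ratio change of at least 30% with cell ATP level not reduced by more than half and red fluorescence within 50% of control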; further: strong numbers were not always called active
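Compound: 20 µM single dose, 1% DMSO / System: HT1080 RFP-PRO-GFP cells / Controls: DMSO and RFP-L50D-GFP cell wells / Read-out basis: GFP/RFP fluorescence ratio / Schedule: overnight compound exposure at 37 °C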
Yeast UUG start – modulators of yeast start codon fidelity, primary screen, whole organism, S. cerevisiae, single point, plate reader | S. cerevisiae UUG-firefly luciferase reporter, luminescence/redox ratio | activity score, % at 18.7 µM | hit rate 0.13% among 350,000 | AID 602363, 2012;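 active means replicate mean at a twofold rise or more, about +100% in these data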;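 further: firefly luciferase made from a UUG start codon reports start codon fidelity; reporter light over untreated wells divided by growth signal over untreated wells; some hits fall short of that in this replicate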
MT1-MMP act inh RFP – recorded beside MT1-MMP act inh, whose call it bears; RFP signal change, %; measured here: RFP expression control read;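 0 = vehicle wells; hits needed this value within 50% of zero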
The depositor's hits bear a star; & = joins results of further samples. Only part of the results is shown. The share of hits here may be higher or lower than overall.

SMILES	MT1-MMP act inh	MT1-MMP act inh RFP	Yeast UUG start
Cc1cn([C@H]2C[C@H](O)[C@@H](/C=C/C(=O)NCc3ccc4c(c3)OCO4)O2)c(=O)[nH]c1=O	3.5	2.4	-16.6
CS(=O)(=O)c1ccc(Cl)c(NC(=O)CSc2nnc(C3CC3)n2C2CC2)c1	1.4	2.8	-17.0
CC(C(=O)N1CCc2ccccc21)N(C)CC(=O)Nc1ccc(F)cc1 (stereo not drawn)	2.3	-0.8	-1.4
O=C(C[C@H]1C[C@H]2c3cc(NC(=O)CC4CC4)ccc3O[C@H]2[C@H](CO)O1)NCc1ccccc1F	3.2	4.3	-11.7
Cc1onc(-c2ccccc2)c1C(=O)NNC(=O)c1ccccc1	0.7	-1.3	-9.4
Cc1c(Cl)cccc1NC(=O)C1CC(=O)N(C2CCCC2)C1 (stereo not drawn)	-0.5	-2.8	-15.1
CCOc1ccccc1N=C1SCC(C)N1C(=O)C1CCN(c2ncnc3sc(C)c(C)c23)CC1 (stereo not drawn)	-2.8	-2.3	-9.5
COc1ccc(OCCNC(=O)c2cc(C3CC3)nc3c2cnn3C(C)C)cc1	-3.9	1.6	-6.4
CC(C)=CCCC(C)=CCN1C(=O)CN(C)C1=O	0.1	0.9	0.3
O=S(=O)(NC1CCc2ccccc21)c1ccccc1 (stereo not drawn)	-1.3	7.6	-23.8
O=c1ccn(C2CCCCC2)c(=O)[nH]1	-1.6	-1.3	-10.2
CC(=O)c1ccccc1NC(=O)COC(=O)c1cc2ccccc2[nH]1	0.5	2.3	-9.0
CCOC(=O)C1(C)CCCN1C(=O)c1ccc(C)cc1 (stereo not drawn)	-0.6	2.6	-16.5
COc1ccc(NC(=O)c2cccc(S(=O)(=O)N3CCCC3)c2)cc1OC	-0.3	0.2	-2.0
O=C(COC(=O)c1ccco1)Nc1ccc2[nH]c(=O)[nH]c2c1	1.5	3.8	-42.0
CNC(=O)c1ccc(NC(=O)c2ccc3c(=O)n4c(nc3c2)CCC4)cc1	0.6	3.1	-4.3
COc1cccc(N2CCN(C(=O)CC(NC(=O)c3ccccc3)c3ccccc3)CC2)c1 (stereo not drawn)	5.0	-2.4	1.4
CC1=NN(c2ccc([N+](=O)[O-])cc2)C(=O)C1	4.0	1.3	-17.9
CCOC(=O)C1=C(COC(=O)/C=C/c2ccc(C)o2)NC(=O)NC1C (stereo not drawn)	-28.8	5.1	-3.1
CCc1noc(C)c1C(=O)N1CCN(S(=O)(=O)c2ccc(Cl)cc2)CC1	-3.0	-1.2	-3.2
Cc1ccc(S(=O)(=O)N2CCN(C(=O)CN3CCCSc4ccccc43)CC2)cc1	0.1	-9.8	-0.8
NS(=O)(=O)c1ccc(CCNC(=O)C2CC(=O)N(Cc3ccccc3Cl)C2)cc1 (stereo not drawn)	-4.2	2.7	-16.3
COc1cc(C(=O)NCCC(=O)NCc2cccs2)cc(OC)c1OC	1.4	3.3	-5.5
COc1ccc(OC)c(NS(=O)(=O)c2ccc3[nH]c(=O)[nH]c3c2)c1	-1.8	0.0	-4.5
COc1cc(-c2cc(C(=O)N3CCCCCC3)c3ccccc3n2)cc(OC)c1OC	6.4	0.4	9.9

Record cards, as listed above. Screens in order: MT1-MMP act inh, MT1-MMP act inh RFP, Yeast UUG start
`CC(C(=O)N1CCc2ccccc21)N(C)CC(=O)Nc1ccc(F)cc1` (stereo not drawn) as listed: 2.3, -0.8, -1.4
`CCOC(=O)C1=C(COC(=O)/C=C/c2ccc(C)o2)NC(=O)NC1C` (stereo not drawn) as listed: -28.8, 5.1, -3.1
`CC1=NN(c2ccc([N+](=O)[O-])cc2)C(=O)C1` as listed: 4.0, 1.3, -17.9
`CS(=O)(=O)c1ccc(Cl)c(NC(=O)CSc2nnc(C3CC3)n2C2CC2)c1` as listed: 1.4, 2.8, -17.0

Further records:
SMILES	MT1-MMP act inh	MT1-MMP act inh RFP	Yeast UUG start
COc1cc(OC)cc(C(=O)NCC(=O)NCCN2C(=O)S/C(=C\c3ccc4c(c3)OCO4)C2=O)c1	-3.9	-2.8	4.4
CCN(C(=O)C(C)Sc1ccc(S(=O)(=O)N2CCN(C)CC2)cn1)c1ccccc1 (stereo not drawn)	1.6	2.6	-18.3
CC(C)(C)c1ccc(C(=O)N2CCC2(C)C(=O)Nc2ccc3nc[nH]c3c2)cc1 (stereo not drawn)	-6.1	-20.9	-0.1
C=C1C(=O)C23C(O)C1CCC2C12COC3(O)C(O)C1C(C)(C)CCC2O (stereo not drawn)	2.8	-12.0	7.0
CCOc1ccc2c(S(=O)(=O)O)cccc2c1[N+](=O)[O-]	-1.7	-1.5	-13.3
CC1(C)NC(=O)N(CC(=O)N2CCN(c3cccc(Cl)c3)CC2)C1=O	3.0	3.9	-7.1
Cc1cnc(C(=O)N(CC(C)C)c2c(N)n(CC(C)C)c(=O)[nH]c2=O)cn1	-4.9	0.8	-18.5
Cc1ccc(C)c(OCC(=O)N(Cc2ccccc2)c2c(N)n(Cc3ccccc3)c(=O)[nH]c2=O)c1	-4.0	-3.5	-11.1
CC(Sc1nnnn1C)C(=O)Nc1ncc(Cl)cc1Cl (stereo not drawn)	1.7	5.9	-38.6
CCc1cccc(CC)c1-n1c(SCC(=O)N2CCc3ccccc32)nc(O)cc1=O	1.1	2.8	-12.1
CCOc1cc(N2CCOCC2)c(OCC)cc1NC(=O)C(NC(=O)c1c(F)cccc1F)C(C)C (stereo not drawn)	-2.1	4.5	-22.5
CC1CC(C)(C)CC2(C1)NC(=O)N(CC(=O)Nc1cc([N+](=O)[O-])ccc1F)C2=O (stereo not drawn)	4.3	-4.5	-17.3
O=C(COC(=O)CCN=C1NS(=O)(=O)c2ccccc21)NNC(=O)c1ccc(Cl)cc1	-0.3	5.1	-15.0
Cc1cnc(NC(=O)c2cccc(S(=O)(=O)N3CCOCC3)c2)s1	1.7	0.1	1.5
O=C(Cn1ncc(Cl)c(Cl)c1=O)NC1CCCCC1	-0.4	-3.5	-14.0
COc1cc(C(O)c2nc(-c3ccc(N(C)C)cc3)cs2)ccc1F (stereo not drawn)	-7.9	-27.4	-18.1
CCCn1cnc2c(Sc3c([N+](=O)[O-])ncn3C)nc(N)nc21	3.4	3.9	-13.4
Fc1ccc(NC(=S)NN=Cc2ccccc2Cl)cc1	0.7	-4.3	-9.4
O=C(c1ccc(Cl)c(S(=O)(=O)N2CCCCCC2)c1)N1CCN(c2ccc(O)cc2)CC1	-1.8	-24.3	1.7
c1ccc2c(c1)-c1nc3ccccc3cc1C2N1CCCCC1 (stereo not drawn)	1.3	-3.3	-14.3
Cc1ccc(CN(C)C(=O)c2cccc(S(=O)(=O)N3CCN(c4ccccc4)CC3)c2)cc1	-6.4	-23.5	12.4
O=[N+]([O-])c1ccc(C=NNC(=S)Nc2ccc(F)cc2)cc1	7.0	2.7	-14.5
COc1ccc(S(=O)(=O)N2CCC(C(=O)NCCOc3ccccc3F)CC2)cc1OC	1.2	-1.2	-5.0
COc1ccc(CCNC(=O)COC(=O)C2COc3ccccc3O2)cc1 (stereo not drawn)	2.2	5.3	-8.2
O=C1NC(=O)C(=Cc2ccccc2)N1	-4.1	-0.9	-27.5

More entries.
SMILES	MT1-MMP act inh	MT1-MMP act inh RFP	Yeast UUG start
CC1(C(=O)Nc2ccc3c(c2)OCCO3)CCN1C(=O)C1(c2ccccc2)CC1 (stereo not drawn)	-0.9	-0.9	1.1
O=C(Nc1cccc(S(=O)(=O)NC2=NCCC2)c1)c1cc(F)c(F)c(F)c1F	-0.8	0.5	-12.9
CC(=O)Nc1ccc(S(=O)(=O)NC(C)C(=O)NCC(c2ccco2)N2CCCCC2)cc1 (stereo not drawn)	5.5	2.4	-6.5
COC(=O)C[C@H]1C=C[C@@H](C(C(=O)OC)C(=O)OC)CN1C(C)=O	0.4	4.5	4.5
O=C(C1CCN(S(=O)(=O)c2ccc(Cl)s2)CC1)N1CCN(c2ccccc2)CC1	2.3	0.2	-14.1
CC(C)C[C@@H](CNCC(=O)[C@H](Cc1c[nH]c2ccccc12)NC(=O)c1[nH]cnc1C(=O)N[C@H](CN)CC(C)C)NC(=O)c1nc[nH]c1C(=O)N[C@@H](CC(=O)O)C(=O)O	0.4	2.2	154.2*
CCN(C(=O)COC(=O)C12CC3CC(CC(O)(C3)C1)C2)c1c(N)n(Cc2ccccc2)c(=O)[nH]c1=O	-1.0	2.2	8.4
COC(=O)c1c(C)[nH]c(C(=O)C(C)OC(=O)c2c(C)noc2C)c1C (stereo not drawn)	5.7	-5.0	7.8
COc1ccc(NC(=O)N(C)[C@H]2C[C@H]3c4[nH]c5ccccc5c4CCN3C(=O)[C@H]2CO)cc1	-5.5	-5.1	0.4
COC1=CC(=O)OC(c2ccc(OC)cc2)C1 (stereo not drawn)	0.2	2.0	2.1
NC(=O)NCC(=O)N1CCN(S(=O)(=O)c2ccc(Cl)s2)CC1	1.8	3.2	-19.9
Cc1ccc(NC(=O)CN2C(=O)NC3(CCCCCCC3)C2=O)cc1C	5.4	1.2	-3.4
COc1ccc(-c2coc3cc(OC(C)=O)c(OC)cc3c2=O)cc1	8.2	1.3	-61.6
O=C(CCNC(=O)c1ccc(Br)cc1)NCCCN1CCCC1=O	2.0	5.0	-5.3
CC1CCN(S(=O)(=O)c2ccc(NC(=O)CCNC(=O)c3ccc(Cl)cc3)cc2)CC1	8.5	4.8	-18.7
O=C(CN1C(=O)C(=O)N(Cc2ccccc2)C1=O)c1ccc[nH]1	-2.2	1.4	-9.3
CN(C)N1C(=O)c2c(Cl)c(Cl)c(Cl)c(Cl)c2C1=O	0.5	-1.3	-7.8
CC(C)CC1(C)NC(=O)N(CC(=O)N2C(C)CCCC2C)C1=O (stereo not drawn)	-0.9	1.6	-15.8
CCOc1ccc(S(=O)(=O)NCc2cccnc2)cc1NC(=O)c1ccccc1	2.8	-3.8	-2.6
CC(C)C1CC2=C(C(=O)OC(C)(C)O2)C(c2ccc(F)cc2)O1 (stereo not drawn)	0.1	2.9	-6.8
CC(C)(C)c1ccc(NC(=O)COC(=O)c2ccc3ncsc3c2)cc1	-1.1	1.7	-18.0
CC(C)(C)NC(=O)NC(=O)CSc1ccc(S(=O)(=O)N2CCCCC2)cn1	5.2	0.7	-9.3
Cc1ccc(NC(=O)CN(C)C(=O)c2ccc(OCc3cn4ccccc4n3)cc2)cc1	11.5	-2.4	-11.0
CC(C)(C)c1ccccc1NC(=O)Nc1nc(C(N)c2ccccc2)cs1 (stereo not drawn)	-4.4	-2.1	-19.2
O=C(COC(=O)c1ccc2ncsc2c1)Nc1ccc(Cl)cc1	5.2	5.4	-31.0

7 successive records already listed, quoted:
SMILES	MT1-MMP act inh	MT1-MMP act inh RFP	Yeast UUG start
CCOc1ccc(S(=O)(=O)NCc2cccnc2)cc1NC(=O)c1ccccc1	2.8	-3.8	-2.6
CC(C)C1CC2=C(C(=O)OC(C)(C)O2)C(c2ccc(F)cc2)O1 (stereo not drawn)	0.1	2.9	-6.8
CC(C)(C)c1ccc(NC(=O)COC(=O)c2ccc3ncsc3c2)cc1	-1.1	1.7	-18.0
CC(C)(C)NC(=O)NC(=O)CSc1ccc(S(=O)(=O)N2CCCCC2)cn1	5.2	0.7	-9.3
Cc1ccc(NC(=O)CN(C)C(=O)c2ccc(OCc3cn4ccccc4n3)cc2)cc1	11.5	-2.4	-11.0
CC(C)(C)c1ccccc1NC(=O)Nc1nc(C(N)c2ccccc2)cs1 (stereo not drawn)	-4.4	-2.1	-19.2
O=C(COC(=O)c1ccc2ncsc2c1)Nc1ccc(Cl)cc1	5.2	5.4	-31.0

More records follow:
SMILES	MT1-MMP act inh	MT1-MMP act inh RFP	Yeast UUG start
NC(=O)c1cccc(-c2coc3c(C(=O)NC4CCCCC4)cccc23)c1	2.4	-25.1	-7.9
CCOC(=O)c1cc(C#N)c(SC(C)C(=O)NC2CCCCC2)nc1C (stereo not drawn)	0.2	-3.7	-13.8
CCN(CC)CCNC(=O)c1ccc(NC(=O)COc2ccc3c(c2)CCC3)cc1	-1.7	0.4	-0.7
COc1ccc(S(=O)(=O)N2CCN(C(=O)c3ccc(NC(C)=O)cc3)CC2)cc1	4.8	6.9	2.8
C[C@@H](O)CNC(=O)c1[nH]cnc1C(=O)Nc1cccc(Cl)c1	-3.1	-3.7	-9.5
CC1C(=O)N(Cc2cn(CC3CCCCC3)nn2)CCS(=O)(=O)N1Cc1ccc(-c2cccc(CO)c2)cc1 (stereo not drawn)	-1.3	-14.4	1.2
CSc1ccccc1NC(=O)CN(C)C(=O)C(C)SCc1nc2sc(C)c(C)c2c(=O)[nH]1 (stereo not drawn)	-5.6	-5.5	3.1
CCOC(=O)c1cc2c(c(-c3ccccc3)n1)[C@H](CCO)N(S(=O)(=O)C(C)(C)C)C2	1.1	4.2	1.8
CCOC(=O)N1CC(C)N(C(=S)Nc2ccccc2)CC1C (stereo not drawn)	3.1	4.9	-18.2
O=C(COC(=O)c1cc(Br)ccc1O)NNC(=O)c1cccs1	1.9	1.0	-36.6
CCCCN(C(=O)C1CSC2(C)CCC(=O)N12)c1c(N)n(CC(C)C)c(=O)[nH]c1=O (stereo not drawn)	-3.7	1.2	-4.5
Cc1ccccc1CN(C)C[C@@H]1OCc2cnnn2CCCC(=O)N([C@H](C)CO)C[C@H]1C	-1.3	4.4	-0.4&-8.5
O=C(COC(=O)c1ccc(-n2cnnn2)cc1)Nc1cc(Cl)ccc1F	1.6	1.2	-18.5
COc1ccccc1N1CCN(C(=O)c2cccc(S(=O)(=O)NCc3cccnc3)c2)CC1	3.2	-12.4	-5.3
